NPR1 antag – antagonists of human natriuretic peptide receptor Npr1; P16066; HEK293 hNpr1 GloSensor cGMP, ANP-stimulated luminescence; Potency, µM (highest dose often 46.3 µM), for the others: at the top dose activity change, negative = inhibition, usual class: inhibitors; 1.6% of 76,000 active; active = well fitted inhibition curve with a large enough effect; inconclusive = small, poorly fitted or top-dose-only effect; inactive = no such curve, though single readings can be large or run the other way;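 further: nearly all actives have a fitted effect of over 60% in size; nearly all hits also lower the signal before the agonist is added; a reference antagonist and vehicle were the controls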
Target sequence (P16066 whole entry, looked up): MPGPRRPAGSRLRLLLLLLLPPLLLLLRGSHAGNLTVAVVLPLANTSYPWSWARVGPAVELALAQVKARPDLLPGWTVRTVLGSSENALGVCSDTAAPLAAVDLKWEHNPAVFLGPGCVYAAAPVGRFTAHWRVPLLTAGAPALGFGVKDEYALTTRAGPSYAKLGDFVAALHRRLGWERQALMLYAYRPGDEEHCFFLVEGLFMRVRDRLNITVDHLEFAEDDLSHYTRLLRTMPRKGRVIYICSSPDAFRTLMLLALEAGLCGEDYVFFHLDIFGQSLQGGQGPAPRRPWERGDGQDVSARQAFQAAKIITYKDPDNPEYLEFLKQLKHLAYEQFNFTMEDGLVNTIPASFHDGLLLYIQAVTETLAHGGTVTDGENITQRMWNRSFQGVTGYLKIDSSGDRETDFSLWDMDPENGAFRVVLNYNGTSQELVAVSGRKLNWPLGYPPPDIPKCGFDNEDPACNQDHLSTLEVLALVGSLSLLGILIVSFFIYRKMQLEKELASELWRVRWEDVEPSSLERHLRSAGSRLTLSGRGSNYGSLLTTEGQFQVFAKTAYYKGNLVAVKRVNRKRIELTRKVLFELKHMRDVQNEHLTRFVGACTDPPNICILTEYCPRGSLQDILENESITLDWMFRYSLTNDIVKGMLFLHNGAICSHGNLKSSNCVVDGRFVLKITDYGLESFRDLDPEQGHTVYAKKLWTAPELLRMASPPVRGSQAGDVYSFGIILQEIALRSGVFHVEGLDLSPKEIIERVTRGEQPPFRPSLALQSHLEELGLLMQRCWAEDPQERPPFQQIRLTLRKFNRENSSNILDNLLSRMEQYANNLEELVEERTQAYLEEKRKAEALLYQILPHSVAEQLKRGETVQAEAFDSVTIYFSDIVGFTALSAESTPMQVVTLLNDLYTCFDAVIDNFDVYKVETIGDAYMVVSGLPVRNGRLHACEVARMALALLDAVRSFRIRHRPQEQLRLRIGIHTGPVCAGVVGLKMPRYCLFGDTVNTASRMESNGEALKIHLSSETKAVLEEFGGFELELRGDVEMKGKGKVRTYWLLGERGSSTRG
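HEK293 cells stably expressing human Npr1 and cGMP GloSensor pGS-40F, loaded 2 h with 2% GloSensor reagent, given compound 30 min at room temperature. Luminescence read before and 20 min after 0.1 nM hNppA.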
* marks the source's active call; other numbers are inactive results; ? = inconclusive; [ ] = another dose, or the depositor's remark. On the % scale 0 is the no-effect control and ±100 the full control effect; potency means the concentration at half of the fitted maximal effect. Some of the compounds tested; count on the stated rates, not on these rows.

NPR1 antag	SMILES
3%	Cc1nnc2n1CCC(NC(=O)CCc1nc3ccccc3s1)CC2 (stereo unspecified)
3%	CS(=O)(=O)Nc1ccc(F)c(NC(=O)NCC2(O)CCCNC2)c1 (stereo unspecified)
4%	O=C1C(N2CCN(S(=O)(=O)c3ccccc3Cl)CC2)CCN1CCc1ccccc1 (stereo unspecified)
-4%[70.6 µM]	COc1ccc(CN2CC[C@H](c3nc4ccc(OC)cc4[nH]3)C2)cc1
-2%	CC#CCN1C(=O)NC(CCc2ccccc2)(C2CCN(Cc3ccccc3-c3ccco3)CC2)C1=O (stereo unspecified)
-5%	N#Cc1ccc(CN2CC[C@H]3C(=O)NCCCCCCN(Cc4ccncc4)[C@@H]3C2)cc1
2%	CC(C)CN1C(=O)N(CC(=O)N(C)Cc2ccon2)C(=O)C12CCNCC2
4%[70.6 µM]	O=C(c1cccn2cncc12)N1CCOCC1
5%	O=C(Cc1cccc(F)c1)N1CCn2c(nnc2[C@@H]2C[C@@H](O)CN2Cc2ccccc2)C1
1%[70.6 µM]	CN1[C@@H](CCC(=O)N2CCN(c3ccccn3)CC2)CNC(=O)[C@H]2NCC[C@H]21
-13%	Cc1ccc(C(=O)N2CCC3(CCCN(Cc4cccc(F)c4F)C3)C2)s1 (stereo unspecified)
9%	Cc1cc(C[C@@H]2COC[C@@H]2NC(=O)CCn2c(C)cc3ccccc32)on1
3%	CCc1ccc(C(=O)N2CCC(C3CCNC3)CC2)cc1 (stereo unspecified)
-13%	Cc1cc(=O)n(CC(=O)Nc2ccc(C(C)C)cc2)c(N2CCc3ccccc3C2)n1
0%	O=C(c1ccco1)N1c2ccccc2CC1c1nnc(C2CCOCC2)o1 (stereo unspecified)
0%	Cc1cccc(OCC(=O)c2ccc3c(c2)N(C(C)C(=O)N2CCCC2)C(=O)CO3)c1C (stereo unspecified)
-10%	Cc1ccc(C2Cn3nnc(C(=O)N4CCN(C(=O)c5ccncc5)CC4)c3CO2)cc1 (stereo unspecified)
5%	CNC(=O)N1CCC(C2CCN(C(=O)c3ccc4ncccc4c3)C2)CC1 (stereo unspecified)
0%	C[C@]1(CO)C2CC[C@@H](O)[C@@H](CC(=O)NCc3ccccc3)[C@]2(C)CC[C@H]1OC(=O)NC1CCCCC1 (stereo partly specified)
-27%	COc1cccc(C(=O)NC2CCN(c3cc(-c4ccc(F)cc4)[nH]n3)CC2)c1OC
-1%	CS(=O)(=O)CCC(=O)N1CCC2(CC1)[C@H](O)C[C@@H]2OCCN
-7%	O=C(NCc1ccccc1F)C1CC(c2ccccc2)CN(C(=O)COc2ccccc2)C1 (stereo unspecified)
0%	CNc1ccc(OC2CCN(C(=O)COC)CC2)nc1
1%[70.6 µM]	Cc1cc(C(=O)Nc2ccc([C@H]3OCC(=O)N(CC(=O)N(C)C)[C@@H]3CO)cc2)nn1C
-13%	COCCN1C(=O)c2cccn2CC1CNC(=O)c1cc2ccccc2[nH]1 (stereo unspecified)
2%	O=C(NC1CCCNC1)C1CCN(c2nc(-c3ccccc3)nc3c2CCC3)CC1 (stereo unspecified)
4%	Cc1ccn(CC(=O)N[C@@H]2CN(C)C[C@H]2CN(C)C)n1
8%	O=C(O)CCNC(=O)Cn1nc2c(cc1=O)CCCCC2
-6%	COc1ccc(C(=O)N2CCc3nc(N)nc(N4CCCC4)c3CC2)o1
-19%	Fc1ccc(C2Cn3nnc(-c4nc(-c5ccccc5F)no4)c3CO2)cc1 (stereo unspecified)
-2%	CC(C)CNC(=O)N1CCn2nnc(CCC(=O)N3CCOCC3)c2C1
-6%	CC1(C)C(=O)N(CCOc2ccccc2)[C@H]2CN(Cc3ccc4c(c3)CCO4)C[C@@H]2[S+]1(=O)[O-]
7%[70.6 µM]	COc1cccc(CN2CCCCC23Cc2ccccc2NC3=O)c1 (stereo unspecified)
1%	O=C(c1ccsc1)N1CCCC2(C1)Nc1cccnc1NC2=NC1CCCC1 (stereo unspecified)
10%	Cc1cnn(C(C)C(=O)N2CCC3(CCC(=O)N(C4CC4)C3)CC2)c1 (stereo unspecified)
6%	CCN1c2cc(C(=O)Nc3ccc(C)cc3)ccc2C(=O)N2CCCC21 (stereo unspecified)
-2%	Cc1c(Cl)cccc1NC(=O)N1CCCC(Cn2cnc3cccnc32)C1 (stereo unspecified)
9%	CC1CCC2(CC1)NC(=O)N(CC(=O)Nc1cccc(C#N)c1)C2=O (stereo unspecified)
7%	CSc1ccc(Nc2ncncc2-c2nc(-c3ccccc3)no2)cc1
-14%	CNC(=O)[C@H]1C[C@H](Oc2cccnc2)CN1C(=O)NCC(C)C
1%	CCN(CCNC(=O)c1cc2c(s1)CN(C1CC1)C2)c1cccc(C)c1
1%	Cc1ccc(C(=O)Nc2ccc(NC(=O)CCCn3cncn3)cc2)o1
8%	C[C@@H](NC(=O)[C@@]1(O)C[C@@H](O)[C@H](O)[C@@H](NS(=O)(=O)c2cccc(C(F)(F)F)c2)C1)C(N)=O
0%	O=C(CCc1nnc(CCc2c[nH]c3ccccc23)o1)N1CCCC1c1nccs1 (stereo unspecified)
1%[70.6 µM]	CCNC(=O)O[C@@H]1CO[C@H]2[C@@H]1OC[C@@H]2NC(=S)Nc1ccccc1
-5%[70.6 µM]	O=C1N(Cc2ccc(F)cc2)C[C@H]2CN(Cc3ccncc3F)CCN12
-7%	Cc1ccc(CNC(=O)c2ccc(CN3C(=O)NC4(CCOCC4)C3=O)cc2)cc1
32µM*	CN1C[C@@H](NC(=O)Nc2ccc(Cl)cc2)C[C@H]1c1nc(-c2ccc(F)cc2)no1

An excerpt from above in order of SMILES length, smallest number first:
NPR1 antag	SMILES
3%	CCc1ccc(C(=O)N2CCC(C3CCNC3)CC2)cc1 (stereo unspecified)
3%	Cc1nnc2n1CCC(NC(=O)CCc1nc3ccccc3s1)CC2 (stereo unspecified)
7%	CSc1ccc(Nc2ncncc2-c2nc(-c3ccccc3)no2)cc1
0%	O=C(c1ccco1)N1c2ccccc2CC1c1nnc(C2CCOCC2)o1 (stereo unspecified)
-2%	Cc1c(Cl)cccc1NC(=O)N1CCCC(Cn2cnc3cccnc32)C1 (stereo unspecified)
6%	CCN1c2cc(C(=O)Nc3ccc(C)cc3)ccc2C(=O)N2CCCC21 (stereo unspecified)
9%	CC1CCC2(CC1)NC(=O)N(CC(=O)Nc1cccc(C#N)c1)C2=O (stereo unspecified)
-4%[70.6 µM]	COc1ccc(CN2CC[C@H](c3nc4ccc(OC)cc4[nH]3)C2)cc1
10%	Cc1cnn(C(C)C(=O)N2CCC3(CCC(=O)N(C4CC4)C3)CC2)c1 (stereo unspecified)
4%	O=C1C(N2CCN(S(=O)(=O)c3ccccc3Cl)CC2)CCN1CCc1ccccc1 (stereo unspecified)
-7%	Cc1ccc(CNC(=O)c2ccc(CN3C(=O)NC4(CCOCC4)C3=O)cc2)cc1
-10%	Cc1ccc(C2Cn3nnc(C(=O)N4CCN(C(=O)c5ccncc5)CC4)c3CO2)cc1 (stereo unspecified)
-5%	N#Cc1ccc(CN2CC[C@H]3C(=O)NCCCCCCN(Cc4ccncc4)[C@@H]3C2)cc1
1%[70.6 µM]	CN1[C@@H](CCC(=O)N2CCN(c3ccccn3)CC2)CNC(=O)[C@H]2NCC[C@H]21
5%	O=C(Cc1cccc(F)c1)N1CCn2c(nnc2[C@@H]2C[C@@H](O)CN2Cc2ccccc2)C1
8%	C[C@@H](NC(=O)[C@@]1(O)C[C@@H](O)[C@H](O)[C@@H](NS(=O)(=O)c2cccc(C(F)(F)F)c2)C1)C(N)=O

Next section
NPR1 antag	SMILES
5%	CS(=O)(=O)NC1CCN(Cc2cc(=O)c3cc(C(N)=O)ccc3[nH]2)CC1
4%	O=C(Nc1nn(Cc2ccccc2)c2cccc(N3CCOCC3)c12)C1CCC1
0%	O=C(Cc1ccc(N(Cc2cccc(F)c2)C(=O)c2ccco2)cc1)Nc1ccccc1
-7%[70.6 µM]	COc1ccc(-c2[nH]nc3ncc(C(=O)N(C)Cc4ccccc4)nc23)c(C)c1
3%	Cc1ccc(-c2cc(N3CCC(CNC(=O)c4ccc[nH]c4=O)CC3)n[nH]2)cc1
-2%	COC(=O)[C@@H]1Cc2c([nH]c3ccccc23)[C@H]2C[C@@H](NCCCn3ccnc3)C[C@@H](c3ccccc3)N21
0%	Cn1ccnc1C(=O)N1CC(F)(F)C[C@H]1c1nc(C2CC2)no1
9%	O=C(c1ccccc1F)N1CCC2(CC1)COc1ccccc1NC2=O
-1%	O=C(c1ccncc1)N1CCC(Cc2nc(-c3ccccc3)n[nH]2)CC1
1%[70.6 µM]	Cn1cc(CN2Cc3c(cc(N4CCOCC4)nc3-c3ccc(CO)cc3)C2=O)cn1
0%[70.6 µM]	CN(C)C(=O)c1nc2sccn2c1Br
-21%	CN(Cc1ccccc1)Cc1cc(CC2(NCc3ccc(OC(F)(F)F)cc3)COC2)no1
-15%	CSCCC(=O)N1CCCC1C(=O)Nc1cccc(-n2cccn2)c1 (stereo unspecified)
-3%	O=C1NCCCCCCN(Cc2ccc(F)c(F)c2)[C@H]2CCC[C@@H]12
-7%	Oc1ccc(CCC2CCCCN2Cc2nc(Cc3cccc(F)c3)no2)cc1 (stereo unspecified)
4%[70.6 µM]	O=C(C[C@@H]1O[C@H](CNCc2ccc(F)cc2)[C@@H](O)[C@H]1O)NCc1ccc(F)cc1
2%	CC(C)Oc1ccc(C(=O)N2[C@@H]3CC[C@H]2CC(NC(=O)c2ccncc2)C3)cc1 (stereo partly specified)
-1%[70.6 µM]	CCNC(=O)NC[C@H]1COCc2nc3cc(C(=O)OC)ccc3n21
-7%	O=C(Nc1ccc2c(c1)C(=O)N1CCC[C@H]1C(=O)N2)c1n[nH]c2c1CCC2
-7%	COCc1nc(C2CCN(S(=O)(=O)c3cccc(OC)c3)C2)no1 (stereo unspecified)
-2%	Cn1ccnc1CNC(=O)C[C@@H]1C[C@H]2O[C@H](CNC(=O)NCc3ccccc3)[C@@H](O)[C@H]2O1
0%	COc1cccc(CCC(=O)N(C)C2CCc3nnc(C)n3CC2)c1 (stereo unspecified)
1%	CC1CCC2(CC1)NC(=O)N(CC(=O)NCc1ccccc1Cl)C2=O (stereo unspecified)
-2%	COc1ccc(CNC(=O)C(C)C2CCOCC2)c(OC)c1 (stereo unspecified)
-2%	O=C(c1c(OCC2CC2)cc(=O)n2c1CCOCC2)N1CCCCC1
1%	Oc1ccc(-c2nc(C3CC3)nc3c2CN(Cc2ccc(F)cc2)CC3)cc1
-2%	O=C(Cn1nc2n(c1=O)CCCCC2)Nc1ccc(F)c(Cl)c1
7%	COc1ccc(OC)c(NC(=O)Cn2cccc2-c2nc(-c3ccc(F)cc3)no2)c1
-2%	COC(C(=O)Nc1ccnn1C1CCN(C(=O)CO)CC1)c1ccccc1 (stereo unspecified)
-2%	COc1cccc(CCC(=O)N2CCC(c3nc(C4CCOCC4)no3)CC2)c1
-3%	Cc1cccc(CC(=O)NCCC2CCN(C(=O)Nc3cc(F)cc(F)c3)CC2)c1
4%[70.6 µM]	CN(C)C(=O)c1ccnc(-c2nnc3ccc(NC4CCCCC4)nn23)c1
-15%	CN1CC(=O)N(C2CCC2)Cc2c1ncnc2N1CCN(c2ncccn2)CC1
3.5µM*	COc1ccc(C(=O)N2CCCN(c3cc(-c4ccc(Cl)cc4)[nH]n3)CC2)c(C)c1
-8%	COc1ccc(CNC(=O)c2c(C)noc2-c2ccccc2C)cc1
-25%	CCn1cnnc1-c1nn(C)c2c1CN(C(=O)c1n[nH]c3ccccc13)CC2
2%	COc1ccc(OC)c(S(=O)(=O)N[C@H]2CO[C@H]3[C@@H]2OC[C@H]3OC(=O)Nc2cccc(C(C)=O)c2)c1
6%	COc1cc(OC)cc(C(=O)N[C@@H]2CN(C)C[C@H]2CN(C)C)c1
1%	CCOC(=O)N1CCC(N2CCCC(CCC(=O)Nc3ccc(OC)c(Cl)c3)C2)CC1 (stereo unspecified)
3%	O=C(c1ccc(CSc2ncccn2)o1)N1CCC(N2CCCC2=O)CC1
1%[70.6 µM]	Cc1cc(-c2cc3c(cn2)N(C)CCN(C)C3)ccn1
-4%[70.6 µM]	Cc1ccc(-c2cc(C(=O)NCc3c(C)cc(C)[nH]c3=O)c3c(c2)N(C)CCO3)cc1
-1%[70.6 µM]	COc1ccc(C(=O)N2CC[C@H](c3nnc(-c4ccccc4OC)o3)C2)cc1OC
?	COc1ccc(C(=O)N2CCC3(CC2)NC(=O)N(Cc2ccccc2)C3=O)cc1F
-1%	CC1=NS(=O)(=O)N(CCCN2C(=O)c3ccccc3C2=O)C=C1C(=O)O
0%	CC(C)N1C(=O)C(CC(N)=O)=C2CCCCC21 (stereo unspecified)
-9%[70.6 µM]	COc1ccccc1CC(=O)N1CCCc2ncc(C(=O)N(C)c3ccccc3)cc21
-12%[70.6 µM]	COc1ccc(-c2cc(C[C@H]3CNCC[C@H]3CC(=O)NCCN(C)C)no2)cc1
-2%	CNC(=O)[C@@H]1CN(C(=O)c2n[nH]c3ccccc23)C[C@H]1COC
2%	Cc1cccc(C(=O)N2C[C@@H](Oc3ccccc3)C[C@H]2C(=O)N2CCCC2)c1
5%	CN1C[C@@H](NC(=O)CC(C)(C)CC(=O)O)C[C@H]1c1nc(-c2ccc3ccccc3c2)no1
10%	CC(C)CN1C(=O)c2ccccc2C(C(=O)NCc2cccnc2)C12CCCCC2 (stereo unspecified)
3%	COc1ccc(CCC(=O)N2[C@@H]3CC[C@H]2CC(NC(=O)c2ccc(F)cc2)C3)cc1 (stereo partly specified)
5%[70.6 µM]	CC(C)C[C@@H](NC(=O)C1=C[C@@H](NC(=O)CC(C)(C)C)[C@@H](O)[C@H](O)C1)C(N)=O
32µM*	CN(Cc1ccccc1)C(=O)c1ccc2c(c1)NC(C)(COc1cccnc1)CO2 (stereo unspecified)
-4%	COc1ccc(CCC(=O)N2CCC(Cc3nncn3Cc3ccccc3)C2)cc1 (stereo unspecified)
1%	N#CCn1nc2n(c1=O)CCN(S(=O)(=O)c1ccc3c(c1)OCCO3)CC2

Bioassay records as filed in PubChem BioAssay.
